# Cruzain inh Det = blocks cruzain activity in presence of Triton detergent | 0.43% of 200,000 active | purified cruzain, Z-FR-AMC fluorescence, 0.01% Triton | Potency, µM, inactives show max response, negative = inhibition, usual class: inhibitors | P25779; active = well fitted curve in the direction sought with a large enough effect; inconclusive = small, poorly fitted or top-dose-only effect, or another doubt; inactive = no such curve, though single readings can be large; an effect the other way counts as inactive or inconclusive;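 also: plate controls were neutral wells for no effect and buffer without enzyme for full effect; nearly all actives have a fitted effect of over 40% in size; top concentration of the series not given in the record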
# Target sequence (P25779 123-467 limits assumed): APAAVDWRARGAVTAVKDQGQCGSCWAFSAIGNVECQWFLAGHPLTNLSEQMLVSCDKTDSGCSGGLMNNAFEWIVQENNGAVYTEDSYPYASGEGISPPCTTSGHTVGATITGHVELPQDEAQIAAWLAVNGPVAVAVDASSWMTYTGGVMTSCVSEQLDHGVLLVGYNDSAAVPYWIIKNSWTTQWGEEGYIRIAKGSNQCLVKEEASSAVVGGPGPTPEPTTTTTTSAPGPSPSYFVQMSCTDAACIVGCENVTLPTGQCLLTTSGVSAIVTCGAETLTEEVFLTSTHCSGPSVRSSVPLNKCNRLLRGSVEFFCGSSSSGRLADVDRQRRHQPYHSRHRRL
#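 Read-out: AMC fluorescence (360 nm excitation, 450 nm emission), four reads over 2 min, first-to-third difference used. Conditions: cruzain 1.5 nM, Z-FR-AMC 2 uM, pH 5.5 acetate, 5 mM DTT, 0.01% Triton X-100.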
# RE007 growth inh = less growth of the S. pombe RE007 Vpr strain. S. pombe RE007 Vpr strain, BacTiter-Glo ATP luminescence, 24 h; control for the full effect not named in the record. Potency, µM (top dose mostly 92.2 µM), for inactives: top-dose activity change, negative = less growth. 0.21% of 360,000 active. AID 651644; active = well fitted falling curve with a large enough effect; inconclusive = small, poorly fitted or top-dose-only effect; inactive = no such curve, though single readings can be large or run the other way;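 also: % is scaled to controls: 0 for no effect and ±100 for the full control effect; nearly all actives have a fitted effect of over 50% in size; the assay follows cell death caused by Vpr and the record does not say whether a fall means rescue or toxicity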
#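 Fission yeast RE007 carrying one integrated HIV-1 vpr copy, seeded at OD 0.01 in PMG+AL medium with 23 nL pinned compound. Grown 24 h at 30 degrees; viability read by BacTiter-Glo luminescence after 5 min.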
# LASV entry inh = Lassa virus entry inhibition. Potency, µM (titrated, usually from 37.9 µM), inactives show at the top dose activity change, negative = inhibition, most hits filed as inhibitors. 1.2% of 300,000 active. Lassa virus pseudotype entry inhibition, cell reporter; control for the full effect not named in the record; active means well fitted inhibition curve with a large enough effect; inconclusive means small, poorly fitted or top-dose-only effect, or effect the other way; inactive means flat fitted curve, though single readings scatter; tested in HEK293 cells; also: % is scaled to controls: 0 for no effect and ±100 for the full control effect; nearly all actives have a fitted effect of over 50% in size; luciferase read-out
# Cruzain noTriton = cruzain (T. cruzi) inhibition without detergent | P25779 | purified cruzain, Z-FR-AMC fluorescence, no detergent | Potency, µM, for inactives: max response, negative = inhibition, hits mostly inhibitors | 2.3% of 200,000 active | AID 1476; active = well fitted curve in the direction sought with a large enough effect; inconclusive = small, poorly fitted or top-dose-only effect, or another doubt; inactive = no such curve, though single readings can be large; an effect the other way counts as inactive or inconclusive;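 also: plate controls were enzyme without inhibitor for no effect and buffer without enzyme for full effect; nearly all actives have a fitted effect of over 40% in size; top concentration of the series not given in the record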
#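 Detergent-free condition (0.00005% Triton X-100) in acetate buffer pH 5.5 with DTT. 1.5 nM enzyme and compound were pre-mixed 15 min, then 2 uM Z-FR-AMC substrate added; reaction progress from fluorescence change between first and third reads (60 s).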
# 2A StopGo = lowers the luciferase signal of an FMDV 2A StopGo reporter; human cells with a luciferase reporter of 2A StopGo recoding; control for the full effect not named in the record; Potency, µM (highest dose often 57.9 µM), for the others: at the top dose signal change, negative = less light; 1.2% of 410,000 active; active = well fitted falling curve with a large enough effect; inconclusive = small, poorly fitted or top-dose-only effect; inactive = no such curve, though single readings can be large or run the other way; tested in HEK293T cells; also: % is scaled to controls: 0 for no effect and ±100 for the full control effect; nearly all actives have a fitted effect of over 45% in size; luciferase light after 4 h
# NS1 inh = blocks influenza NS1 protein function; S. cerevisiae slowed by influenza A NS1, growth recovery by OD600; Potency, µM (titrated, usually from 46.1 µM), for inactives: top-dose activity, positive = more growth; 0.4% of 270,000 active; also: actives are rising curves; nearly all actives have a fitted effect of over 50% in size
#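 Growth recovery, yeast-based: influenza A NS1 expressed in S. cerevisiae causes slow growth, and suppressors are detected by OD600. The parent strain without NS1 is used as positive control.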
# SARS PLpro yeast = blocks SARS-CoV papain-like protease in a yeast assay. S. cerevisiae expressing SARS-CoV PLpro, growth rescue; control for the full effect not named in the record. Potency, µM (highest dose often 32.9 µM), for inactives: at the highest dose activity, positive = growth rescue. 0.19% of 330,000 active; also: 0% is about no effect; nearly all actives have a fitted effect of over 55% in size; growth read by luminescence after 48 h
# MARV entry inh = blocks Marburg virus binding to or entry into cells. Potency, µM (doses to about 37.8 µM), without a hit: top-dose activity change, negative = inhibition, most hits filed as inhibitors. Marburg virus pseudotyped entry inhibition, cell reporter; control for the full effect not named in the record; about a third of the inactives were read at about 46 µM. 1.8% of 300,000 active. AID 540276; active = well fitted inhibition curve with a large enough effect; inconclusive = small, poorly fitted or top-dose-only effect, or effect the other way; inactive = flat fitted curve, though single readings scatter; tested in HEK293 cells; about a fifth of its hits are not listed in these tables; also: % is scaled to controls: 0 for no effect and ±100 for the full control effect; luciferase read-out
# Numbers without * were called inactive; ? = inconclusive; · = not tested or not shown; & = joins results of further samples; [ ] = remark or other dose. Unless noted, calls follow the shape of the dose curve; as a rule, active means well fitted rising curve with a large enough effect; inconclusive means small, poorly fitted or top-dose-only effect; inactive means no such curve, though single readings can be large or run the other way. Potency is read from the fitted curve at half-maximal effect.
SMILES,Cruzain inh Det,NS1 inh,RE007 growth inh,Cruzain noTriton,MARV entry inh,2A StopGo,LASV entry inh,SARS PLpro yeast
Cc1nc2ccc(S(=O)(=O)N(C)CC(=O)Nc3ccccc3F)cc2s1,·,·,-9%,·,?,13%,-12%[46.1 µM],8%
N#Cc1cnc(Oc2ccc(Cl)cc2)nc1N,·,2%,13%,·,·,22%,·,2%
COc1ccc(NC(=O)c2oc3ccccc3c2C)c(OC)c1,-1.9%,-4%,-10%,-5%,18%,30%,?,-4%
OCC(Cc1ccc2c(c1)OCO2)C(CO)Cc1ccc2c(c1)OCO2 (centres undefined),·,-2%,-10%,·,·,0%,·,4%
C/C(=N\NC(=O)Cc1c(Cl)cccc1Cl)c1cccnc1,·,-3%,-8%,·,8%,11%,-3%,0%
c1ccc2nc3c(ccc4ccccc43)cc2c1,·,·,-17%,·,?,57%[activator],1%,·
CCOc1ccccc1NC(=O)CSc1nnc(Cc2cccn2C)n1-c1ccc(F)cc1,-2.9%,-30%,-2%,?,5%,-6%,·,-9%
COc1ccc(-c2ccnc(SCC(=O)c3ccc(Br)cc3)n2)cc1,-2.0%,3%,1%,-7%,4%,-23%,11%,3%
COc1ccc(NC(=O)CN2C(=O)NC(C)(c3ccc(C)cc3)C2=O)c([N+](=O)[O-])c1 (centres undefined),·,0%,8%,·,?,-6%,·,0%
COC(=O)c1cc(COc2ccc3c4c(c(=O)oc3c2)CCCC4)c(C)o1,-19%,8%,-6%,10%,2%,·,0%,-2%
O=C(COc1ccc(Cl)cc1)N(Cc1ccco1)c1ccccn1,-2.2%,·,·,-4%,2%[46.1 µM],32%[activator],5%[46.1 µM],·
Cc1ccc(NC(=O)c2sc(-n3nc(C)c(Cc4ccc5c(c4)OCO5)c3C)nc2C)cc1C,-1.4%,·,·,0%,-1%[46.1 µM],-4%,-10%[46.1 µM],·
O=C(Nc1nnc(SCc2c(Cl)cccc2Cl)s1)C1CCCO1 (centres undefined),-5.6%,-13%,9%,2%,19%,43%[activator],3%,-8%
COc1ccc(C(=O)/C=C/c2ccc(OCc3ccccc3)cc2)cc1CSCC(=O)O,·,-1%,-8%,·,·,-13%,·,0%
CC1Cc2cc(/C(O)=C3/C(=O)C(=O)N(CCCn4ccnc4)C3c3ccncc3)ccc2O1 (centres undefined),-2.1%,-12%,16%,5%,3%,-5%,15%,-6%
Cc1ccc(NC(=O)CSc2nc3ccccc3c3nc(CCc4c(C)n[nH]c4C)nn23)c(C)c1,1.8%,·,·,2%,·,-17%,8%[46.1 µM],·
COc1ccc(-c2nc3ccccc3o2)cc1NC(=O)C(C)(C)Oc1ccc(Br)cc1,0.1%,·,·,-6%,18%[46.1 µM],-19%,7%[46.1 µM],·
Cc1ccc(-c2nn(-c3ccccn3)c(=O)c3ccccc23)cc1,·,·,18%,·,?,-5%,?,7%
COc1cccc(Cn2c(SCC(=O)N(C)c3ccccc3)nc3ccccc32)c1,-4.0%,·,·,16%,·,?,?,·
Cc1ccc(C(=O)Nc2ccccc2)cc1S(=O)(=O)Nc1ccccc1,-7.8%,·,·,8%,?,57%[activator],-4%[46.1 µM],·
O=C(c1cncc(Br)c1)N1CCN(S(=O)(=O)c2ccc3ccccc3c2)CC1,·,·,1%,·,?,0%,?,-2%
COC(=O)Cc1ccc(NC(=S)N2CCCCC2C)cc1 (centres undefined),·,1%,0%,·,?,32%[activator],?,-1%
COc1ccc(C2c3c(ncn(CCN4CCOCC4)c3=N)Oc3ccc4ccccc4c32)cc1 (centres undefined),-7.0%,2%,-2%,-19%,?,-22%,?,1%
Clc1ccc(CN2CCC(c3nc4ccc(Cl)cc4[nH]3)CC2)cc1,1.3%,-32%,2%,-5%,11µM*,?,?,2%
COCC(=O)Nc1cc(C(=O)OC)cc(C(=O)OC)c1,-2.0%,-2%,5%,-9%,?,-25%,?,3%
O=C(NCc1ccccc1)NC1CC2CCC(C1)N2Cc1ccco1 (centres undefined),5.4%,-16%,-13%,8%,-10%[46.1 µM],-5%,-9%,8%
CCCn1c(SCC(=O)N2CC(=O)Nc3ccccc32)n[nH]c1=O,·,·,7%,·,11%[46.1 µM],3%,4%[46.1 µM],16%
CCC(C(=O)OCC(=O)Nc1c(C)n(C)n(-c2ccccc2)c1=O)c1ccccc1 (centres undefined),3.8%,-14%,2%,7%,-1%,0%,0%,2%
O=C(CN(Cc1ccco1)C(=O)CNS(=O)(=O)c1ccc(Cl)cc1)NCc1ccco1,·,-4%,-13%,·,-2%[46.1 µM],10%,-21%,0%
C/C(=N/NC(=O)c1cccs1)c1cccc(NC(=O)C2CC2)c1,1.5%,-5%,7%,0%,-1%,60%[activator],1%,5%
O=C(c1ccc(Cl)c(NC2=NC3CS(=O)(=O)CC3S2)c1)N1CCN(c2ccccc2)CC1 (centres undefined),·,-9%,-6%,·,·,0%,·,1%
CCCCN1CC(O)=C(c2nc3ccccc3[nH]2)C1=N,-8.8%,-6%,11%,-15%,-11%,66%[activator],-1%,-8%
O=C(CN1CCCCCC1)NCCc1ccc(F)cc1,-5.3%,-5%,5%,-1%,-11%,·,-1%,-1%
CCN(CC)C(=O)CSc1nnc2nnc3cc(Cl)ccc3n12,·,-46%,-13%,·,-2%[46.1 µM],-11%,19%,-2%
COc1ccccc1NC(=O)Cn1nnc(C(=O)Nc2ccccc2)c1N,-11%,5%,10%,-2%,17%,6%,?,0%
CC(C)N(Cc1ccccc1)S(=O)(=O)c1ccc(Cl)nc1,·,·,-5%,·,9%[46.1 µM],-6%,14%,-6%
CN(C)c1ccc(-c2ccc([C@H]3[C@@H]4C=CCC[C@@]4(C)C(=O)N3Cc3ccccc3)c(F)c2)cc1,·,5.6µM*,2%,·,·,?,·,0%
O=C(Cn1nnc2ccccc21)NNC(=S)NC1CCCCC1,·,0%,6%,·,-13%[46.1 µM],-5%,-10%[46.1 µM],1%
COc1ccc(Nc2nc(-c3cccc([N+](=O)[O-])c3)nc3ccccc23)cc1,-4.0%,16%,-10%,?,15µM*,40µM*,?,3%
CCN(CC)S(=O)(=O)c1cc(NS(=O)(=O)c2cccs2)ccc1C,·,·,7%,·,2%,16%,-19%,-1%
Cc1cc(C)cc(NC(=O)CS(=O)(=O)c2ccccc2)c1,·,-8%,22%,·,·,-7%,·,13%
CC(=O)Nc1ccc(NC(=O)C(C)OC(=O)c2ccccc2C(=O)c2ccc(Cl)c([N+](=O)[O-])c2)cc1 (centres undefined),-0.7%,0%,-14%,?,?,0%,3%,11%
C=CCn1c(O)c(N=NC(=O)c2ccc3c(c2)OCO3)c2ccccc21,8.9%,2%,-7%,1%,5%,2%,1%,-2%
O=C(C1=C(O)C(=O)N(CCOCCO)C1c1cccs1)c1cccs1 (centres undefined),-4.4%,-6%,-1%,2%,-3%[46.1 µM],1%,3%,13%
CC(=O)Nc1ccc(S(=O)(=O)N2CCOCC2)cc1,-0.1%,5%,-9%,-11%,-25%,-21%,-9%,28%
CCOc1ccccc1NC(=O)COC(=O)c1cn(CC)c2nc(C)ccc2c1=O,-2.3%,·,·,-1%,10%[46.1 µM],0%,-3%[46.1 µM],·
Cc1ccc(S(=O)(=O)N(CC(=O)NCCSCc2ccco2)c2cc(C)ccc2C)cc1,·,·,2%,·,?,-14%,?,·
CC(=O)OC1CC(C)(C)N(OC(=O)CCCN2C(=O)c3ccccc3C2=O)C(C)(C)C1,0.3%,-26%,11%,?,3%,?,0%,-6%
Cn1ncc2c(N3CCOCC3)ncnc21,3.0%,-2%,11%,6%,-2%,·,16%,3%
CCOC(=O)c1cc(C)n(CCCN2CCOCC2)c1C,4.3%,7%,-27%,9%,3%,13%,-14%,-5%
CCN1C(=O)/C(=C\N(C)C)c2ccccc21,-6.1%,-3%,21%,-6%,?,16%,12%,-41%
CCCC(=O)Nc1nc2ccc(NC(=O)c3ccc(Br)o3)cc2s1,-6.8%,?,-14%,-15%,?,-1%,-22%,1%
CCc1c(Nc2ccccc2C)nc(N)[nH]c1=O,·,·,-5%,·,-20%[46.1 µM],16%,-1%[46.1 µM],·
O=C(c1ccccc1)c1cccn1CC(=O)N1CCN(C2CCCCC2)CC1,-2.8%,9%,-17%,-3%,5%,-10%,19%,0%
O=C(NCCN1CCCC(O)C1)c1cc(COc2c(F)cccc2F)on1 (centres undefined),·,12%,6%,·,·,-5%,·,0%
NS(=O)(=O)c1ccc(NC(=O)CCC(=O)N2CCOCC2)cc1,·,6%,-7%,·,6%[46.1 µM],-3%,-13%,-14%
CC(=O)c1c(C)nc2sc3c(=N)n(N)cnc3c2c1-c1ccc(Cl)cc1,-3.7%,18%,1%,-10%,?,-10%,-20%,-10%
O=C(CCl)Nc1ccccc1C(=O)NCc1ccccc1,·,-2%,7%,·,·,-22%,·,0%
COC(=O)c1cnn(-c2ccc(F)cc2F)c1/C=N/NC(N)=S,·,0%,-11%,·,·,?,·,1%
CCOC(=O)N1CCN(C(=O)c2ccc(SC)cc2OC)CC1,·,-1%,2%,·,·,52%[activator],·,2%

# Next section
SMILES,Cruzain inh Det,NS1 inh,RE007 growth inh,Cruzain noTriton,MARV entry inh,2A StopGo,LASV entry inh,SARS PLpro yeast
COc1ccc(Cc2c(O)nc(SC)n(C(C)=O)c2=O)cc1,2.0%,12%,10%,-2%,2%,3%,2%,-1%
O=C(NC1CCN(C(=O)Nc2cccc(Cl)c2)CC1)C1CCCCC1,·,11%,-14%,·,-1%[46.1 µM],-13%,?,0%
Cn1nc(C(C)(C)C)cc1C(=O)NNC(=O)c1cccc(Cl)c1,·,-3%,6%,·,-28%[46.1 µM],-13%,-2%,0%
CCc1ccc(C(=O)Cc2cc3cccc(OC)c3oc2=O)cc1,·,-1%,26%,·,·,71%[activator],·,2%
COc1cc(NC(=S)NCCc2ccc(S(N)(=O)=O)cc2)c(OC)cc1Cl,·,3%,-1%,·,·,2%,·,0%
CC(C)(C)c1ccc(OCCn2ccccc2=O)cc1,-1.3%,-60%,24%,13%,?,-5%,9%,-2%
C/C(=N\O)c1cc(Cl)cc(Cl)c1O,·,-42%,?,·,16%&16%,6%,8%,-3%
